Screening results from PubChem BioAssay.
HNF4A DNA FP = change in binding of human HNF4 alpha to DNA. P41235. AID 1224865. activity change, % at 10 µM. 360,000 tested, 0.3% active. HNF4a-FITC DNA binding, fluorescence polarization, 1 h; in the data active = activity change above about 30%, passing the limit was not always enough;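 also: controls were the assay level and a saturating level of protein; the project sought stronger binding though the title names inhibitors; some compounds called inactive have numbers as strong as hits; positive values seem to mean higher polarization but the record does not say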
E coli growth = inhibitors of Escherichia coli growth. OD600 absorbance (no concentration beside the values). 330,000 tested, 0.21% active. AID 1053175. OD600, 23 h; active compounds read low;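 active = OD600 absorbance below the run mean of sample wells minus 3.6 SD, in any replicate, cut at about 0.56 in these data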;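 also: stock transfer was 300 nL into about 60 µL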
FGF22 binding = binders of recombinant human FGF22 by thermal shift. SYPRO orange fluorescence; percent of sucrose octasulfate shift, DMSO zero. calls only at 9.99 µM. Q9HCT0. 340,000 tested, 1.5% active;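 active = melting point raised past a set limit in the mean and every replicate; three in four hits are not shown here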
Target sequence (Q9HCT0 whole entry, looked up): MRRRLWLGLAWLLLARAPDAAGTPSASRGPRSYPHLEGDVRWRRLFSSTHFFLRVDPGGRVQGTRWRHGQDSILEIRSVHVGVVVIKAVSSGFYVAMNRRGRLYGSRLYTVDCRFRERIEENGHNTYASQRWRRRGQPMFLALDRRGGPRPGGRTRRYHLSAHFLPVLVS
UCH37 inh = blocks the human deubiquitinase UCH37; Q9Y5K5; purified proteasome/UCH37, Ub-AMC cleavage fluorescence; inhibition, % (no concentration beside the values); 330,000 tested, 0.33% active;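 active = mean of two replicates above 20%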;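 also: 0% = compound-free wells with enzyme and 100% = wells lacking proteasome; stock transfer was 100 nL into about 20 µL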
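Signal – fluorescence, ex 355 nm, em 460 nm · System – Proteasome-bound UCH37 · Input – 0.15 nM proteasome as dispensed · Timing – 30 min preincubation with enzyme, 25 min cleavage at room temperature · Read-out basis – percent inhibition of cleavage signal versus uninhibited and no-proteasome wells · Medium – Tris-HCl pH 7.4 with ATP-MgCl2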
Starred values were filed as active, the others as inactive; i = inactive; · = not tested or not shown; & = joins results of further samples. Some of the compounds tested, so the mix of outcomes need not match the whole.

Preview (3 entries):
Short forms: A = HNF4A DNA FP; B = E coli growth; C = FGF22 binding; D = UCH37 inh
CC1CC2C3CC(F)C4=CC(=O)C(Cl)=C[C@]4(C)[C@@]3(F)C(O)C[C@]2(C)[C@@]1(O)C(=O)CO (stereo partly drawn)
  A: ·	B: 0.615	C: ·	D: ·

CC=CC(=O)N(CC)c1ccccc1C
  A: ·	B: 0.68	C: ·	D: ·

CCOC(=O)C(CCc1ccccc1)NC(C)C(=O)N1Cc2ccccc2CC1C(=O)O (stereo not drawn)
  A: ·	B: 0.71	C: ·	D: ·

The listing, from the start:
Short forms: A = HNF4A DNA FP; B = E coli growth; C = FGF22 binding; D = UCH37 inh
CC1CC2C3CC(F)C4=CC(=O)C(Cl)=C[C@]4(C)[C@@]3(F)C(O)C[C@]2(C)[C@@]1(O)C(=O)CO (stereo partly drawn)
  A: ·	B: 0.615	C: ·	D: ·

CC=CC(=O)N(CC)c1ccccc1C
  A: ·	B: 0.68	C: ·	D: ·

CCOC(=O)C(CCc1ccccc1)NC(C)C(=O)N1Cc2ccccc2CC1C(=O)O (stereo not drawn)
  A: ·	B: 0.71	C: ·	D: ·

C#C[C@]1(O)CCC2C3CCC4=CC(=O)CCC4C3CC[C@@]21CC (stereo partly drawn)
  A: ·	B: 0.69&0.679	C: ·	D: ·

Cc1[nH]c2ccccc2c1C=NNC(N)=S
  A: ·	B: 0.666	C: ·	D: 10.7

CC1(C)OC2CC(=O)OCC23C1CC(=O)C1(C)C3CCC2(C)C(c3ccoc3)OC(=O)C3OC321 (stereo not drawn)
  A: -1.1	B: ·	C: i	D: ·

Whole records from above. Values in the order: HNF4A DNA FP	E coli growth	FGF22 binding	UCH37 inh
CC1(C)OC2CC(=O)OCC23C1CC(=O)C1(C)C3CCC2(C)C(c3ccoc3)OC(=O)C3OC321 (stereo not drawn) reads -1.1	·	i	·
CC1CC2C3CC(F)C4=CC(=O)C(Cl)=C[C@]4(C)[C@@]3(F)C(O)C[C@]2(C)[C@@]1(O)C(=O)CO (stereo partly drawn) reads ·	0.615	·	·
